Screens as filed in PubChem BioAssay.
AmpC inh no det: Promiscuous and Specific Inhibitors of AmpC Beta-Lactamase (assay without detergent); Potency, µM (titrated, usually from 28.7 µM), for the others: at the top dose activity change, negative = inhibition; P00811; AmpC nitrocefin hydrolysis, absorbance 480 nm, no detergent; potencies from a single point are estimates; hit rate 1.8% among 71,000; AID 585, 2007; active = falling curve, for most hits resting on a single point; inconclusive = weak or doubtful change; inactive = flat or rising curve; also: % of control where 0% means no effect; about half of the hits show no inhibition at the top dose; a quarter of the inactives give rising signals
Target sequence (P00811 whole entry, looked up): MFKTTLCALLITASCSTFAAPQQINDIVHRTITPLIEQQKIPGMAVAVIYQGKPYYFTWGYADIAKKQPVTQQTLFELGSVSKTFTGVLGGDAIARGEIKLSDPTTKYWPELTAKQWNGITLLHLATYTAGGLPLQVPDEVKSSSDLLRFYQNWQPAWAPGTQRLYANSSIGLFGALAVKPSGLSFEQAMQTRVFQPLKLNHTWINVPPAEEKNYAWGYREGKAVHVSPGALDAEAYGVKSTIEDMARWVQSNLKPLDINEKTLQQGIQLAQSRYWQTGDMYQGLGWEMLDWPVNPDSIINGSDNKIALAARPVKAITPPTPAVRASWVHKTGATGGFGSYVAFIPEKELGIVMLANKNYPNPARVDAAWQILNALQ
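AmpC in 20 mM phosphate buffer pH 7.0 was preincubated 15 min at room temperature with compounds. Nitrocefin (800 uM stock) was then added and hydrolysis followed at 480 nm every 20 s for 4 min.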
The depositor's hits bear a star; & = joins results of further samples; [ ] = another dose, or the depositor's remark. Potency is read from the fitted curve at half-maximal effect. These rows are one share of the data; the hit share may differ from the screen's.

SMILES | AmpC inh no det
CC1Cn2c(nnc2-c2cccs2)S1 (centres undefined) | -5%
c1ccc2c(N3CCNCC3)nc(-c3ccc4c(c3)OCO4)nc2c1 | 24%
Nc1cc(Cl)c(N)cc1Cl | -12%
COCCN(CCOC)c1nc(C)nc2c1nc(-c1ccccc1)n2CCCN1CCCCC1C (centres undefined) | 57%
O=c1c(-c2cc(F)cc(F)c2)nc2cncnc2n1-c1ccccc1 | 18%
Cc1cc(C)cc(O)c1 | -4%
Cc1ccnc(N2C(=O)c3ccccc3C2Nc2ccccc2Cl)c1 (centres undefined) | 7%
Cc1ccc2c(c1)N(CCCC(=O)NCc1ccc3c(c1)OCO3)C(=O)CO2 | 40%

SMILES | AmpC inh no det
CC[C@H](C)[C@@H]1O[C@]2(CC[C@@H]1C)C[C@H]1C[C@H](CC=C(C)[C@@H](O[C@@H]3C[C@H](OC)[C@H](O[C@@H]4C[C@H](OC)[C@H](O)[C@H](C)O4)[C@H](C)O3)[C@@H](C)C=CC=C3CO[C@@H]4[C@@H](O)C(C)=C[C@@H](C(=O)O1)[C@]34O)O2 | 122%[12.8 µM]
O=C(Nc1nc2ccccc2s1)C1CCCN1S(=O)(=O)c1ccc(Cl)cc1 (centres undefined) | -6%
COc1ccccc1NC(=O)CCC(=O)Nc1nnc(C(F)(F)F)s1 | -9%
Cc1cc(N2CCN(c3ccccn3)CC2)n2nc(C)nc2n1 | 15%
Cc1ccccc1-c1nc(NCCN2CCOCC2)c2ccccc2n1 | 21%
CC(C)Nc1nc(NC(C)C)nc(C(N)=O)n1 | 0%
CCOC(=O)Cn1ncc(-c2ccccc2)c1N | -4%
Cn1nc(C(=O)NCCN2CCOCC2)c2ccccc2c1=O | -6%

SMILES | AmpC inh no det
Cc1cc(NC(=O)c2noc3c2CCCC3)n(-c2ccccc2)n1 | 8%
COc1cc2c(cc1OC)CN(C(=O)CSc1n[nH]c(N)n1)CC2 | -2%
COc1ccc(NC(=O)CSc2nnc(Cc3cccn3C)n2-c2ccc(F)cc2)cc1 | 102%
c1nc2nc3c(c(N4CCOCC4)n2n1)CCCC3 | -1%
COc1ccc(NC(=O)CN(c2cc(C)cc(C)c2)S(=O)(=O)c2c(C)noc2C)cc1OC | 99%
COc1cc(NC(=O)c2ccc(-c3ccc(Br)cc3)o2)ccc1NC(=O)C(C)C | 40%
Cn1c(C(=O)NCC2CCCO2)cc2c(=O)n3ccccc3nc21 (centres undefined) | 4%
CCC1SC2=NCN(c3ccccc3)CN2C1=O (centres undefined) | 4%

SMILES | AmpC inh no det
CSCC[C@H](NC(=O)Nc1ccc(C)cc1)C(=O)O | -8%
CCCC(C)C(=O)NC1CCSC1=O (centres undefined) | -4%
CC(C)Nc1nnc(SCC(=O)Nc2ccc(F)cc2)s1 | -6%
O=C(c1ccncc1)N(Cc1cc2ccccc2[nH]c1=O)C1CCCCC1 | -2%
CC1CCCCC1NC(=O)C1Cc2ccccc2CN1S(C)(=O)=O (centres undefined) | 10%
CC(C)c1nnc(SCc2ccc(CSc3nnc(C(C)C)n3N)cc2)n1N | 2%
NC(=O)OCC(COC(N)=O)c1ccccc1 | 12%&-6%
N#CC1=C2SCN(c3ccccc3)CN2C(=O)CC1c1c(Cl)cccc1Cl (centres undefined) | 2.5µM*

SMILES | AmpC inh no det
C=CCn1c(=N)c(C(=O)OC)cc2c(=O)n3cccc(C)c3nc21 | 9%
CCCC(c1nnnn1CCOC)N1CCN(c2cccc(OC)c2)CC1 (centres undefined) | 71%
O=C(Nc1cccc(-c2nnc(-c3ccccc3)o2)c1)c1ccc(Br)o1 | 52%
CCOc1ccc(C(=O)C2CCN(CC(=O)Nc3ccccc3N3CCOCC3)CC2)cc1 | 84%
Cn1c(=O)c2ncn(CC(=O)NCCC3=CCCCC3)c2n(C)c1=O | 19%
CCOc1cccc(C(=O)Nc2cc(-c3nn4c(C)nnc4s3)ccc2C)c1 | 12%
COc1ccccc1-c1nc(C#N)c(NCc2ccc(F)cc2)o1 | 24%
Cc1ccc(-c2nnc(SCC(=O)N3CCCC3)o2)cc1C | 33%

In a second layout: results already given
CCOc1cccc(C(=O)Nc2cc(-c3nn4c(C)nnc4s3)ccc2C)c1
  AmpC inh no det: 12%

Cc1ccc(-c2nnc(SCC(=O)N3CCCC3)o2)cc1C
  AmpC inh no det: 33%

The results go on:
SMILES | AmpC inh no det
O=c1[nH]c(-c2ccccc2O)nc2c1CCCC2 | 3%
O=[N+]([O-])c1ccc(Cl)c(Cl)c1 | -2%
Cn1c(N)c(N=Nc2ccc(S(N)(=O)=O)cc2)c(=O)n(C)c1=O | -4%[5.75 µM]
CCOC(=O)C1CCCN(C(=O)c2ccccc2NC(C)=O)C1 (centres undefined) | 2%
C1=CC2CC1CC2CNCc1ccco1 (centres undefined) | 2%
COc1ccc(C2CC(=O)C=C(NCC3CCCO3)C2)cc1 (centres undefined) | 11%
CCC(=O)c1ccc(OCCSc2ncccn2)cc1 | -2%
CSC1=NCCN1C(=O)COc1ccccc1 | 2%

SMILES | AmpC inh no det
COc1ccc(NC(=O)CNS(=O)(=O)c2ccccc2)cc1Cl | -7%
CCn1cc(C(=O)NCc2ccc(C)o2)c2cc(OC)c(OC)cc2c1=O | 100%
CCCC(=O)N1CCN(c2ccc(NC(=O)c3ccco3)cc2)CC1 | 9%
Cc1cc(C(=O)Oc2ccccc2C(=O)O)c(C)o1 | -11%
COC(=O)CCCCCN1C(=O)NC(c2ccccc2)C(C(=O)OCc2ccccc2)=C1C (centres undefined) | -5%
CCOC(=O)CSc1nnc(NCC(=O)OC(C)C)c(=O)[nH]1 | 5%
CCCOP(=O)(c1ccc(N(C)C)cc1)C(O)c1ccncc1 (centres undefined) | 3%
COc1ccc(S(=O)(=O)N(CC(=O)Nc2ccc3c(c2)OCO3)c2ccccc2OC)cc1 | -19%

SMILES | AmpC inh no det
CCS(=O)(=O)N1CCCC(C(=O)NCCCOC)C1 (centres undefined) | -7%
CCOc1cc(-c2c(C#N)c(=O)[nH]c3c2c(C)nn3-c2ccc(F)cc2)ccc1O | -23%
COc1cc([C@@H](O)CN)ccc1O | -3%
Cc1nn(Cc2ccccc2)c2sc(C(=O)NCc3cccnc3)cc12 | 90%
Cc1cc(=O)n2nc(N3CCCC(C(=O)N4CCc5ccccc54)C3)sc2n1 (centres undefined) | 58%
CCCN1C[C@H](C)N([C@H](c2ccc(C(=O)N(CC)CC)cc2)c2cccc(OC)c2)C[C@H]1C | 33%
COc1ccc(-c2cc(-c3ccccc3)nc(N3CCCC3)n2)cc1OC | 32%
COCCn1c(C)cc(C(=O)CSc2nc3ccccc3c(=O)[nH]2)c1C | 35%

SMILES | AmpC inh no det
Nc1nnc(N2CCCCCC2)s1 | -4%
Cc1cc2nnc(SCC(=O)NCc3ccco3)n2c2ccccc12 | 12%
COc1ccc(/C(O)=C2\C(=O)C(=O)N(CCCN(C)C)C2c2ccccc2F)cc1Cl (centres undefined) | -2%
Cc1cccc(NC(=O)c2cc3n(n2)C(C(F)(F)F)CC(c2ccc4c(c2)OCO4)N3)c1 (centres undefined) | 14%
Cc1ccc2c(c1[N+](=O)[O-])C(=O)c1ccccc1C2=O | -6%
COc1cc2cc(C(c3nnnn3C3CCCC3)N3CCCCCC3)c(=O)[nH]c2cc1OC (centres undefined) | 109%
COC(=O)c1nc2n(n1)C(c1ccccc1OC)C1=C(CCCC1=O)N2 (centres undefined) | 0%
COc1ccc(S(=O)(=O)n2nc(OC(=O)c3ccccc3)cc2N)cc1 | -14%

SMILES | AmpC inh no det
CCOC(=O)c1c(NC(=O)c2ccn(CC)n2)sc2c1CCCC2 | 45%
O=C(Nc1nc(-c2ccccc2)cs1)c1cccs1 | -16%
COc1cc(OC)cc(C(=O)N2CCN=C2SCc2cccnc2)c1 | 45%
Cc1oc(CSCC2CCCO2)cc1C(=O)O (centres undefined) | -11%
O=C(c1ccco1)N1CCC2(CC1)CN(c1ncccn1)C2 | 51%
CN(Cc1ccc(O)cc1)C1CCCCC1 | -10%
Cc1ccc(OCc2nnc(SCC(=O)NCc3ccccc3)n2C)cc1 | 55%
CC(=O)Nc1ccc(NC(=O)c2cccc(C(=O)OC(C)C)n2)cc1 | 26%

An excerpt of these results, with each value named:
Cc1ccc2c(c1[N+](=O)[O-])C(=O)c1ccccc1C2=O
  AmpC inh no det: -6%

Cc1ccc(-c2nnc(SCC(=O)N3CCCC3)o2)cc1C
  AmpC inh no det: 33%

C=CCn1c(=N)c(C(=O)OC)cc2c(=O)n3cccc(C)c3nc21
  AmpC inh no det: 9%

Cn1nc(C(=O)NCCN2CCOCC2)c2ccccc2c1=O
  AmpC inh no det: -6%

Later entries
SMILES | AmpC inh no det
Cc1ccc(C)n1-n1cnc2sc(-c3ccccc3)cc2c1=O | 9%
CC(C)CN(C(=O)COC(=O)Cc1c[nH]c2ccccc12)C1CCS(=O)(=O)C1 (centres undefined) | 40%
O=C(O)CCC(=O)c1ccc2sc3ccccc3c2c1 | -7%[5.75 µM]
CCOCCCNC(=O)CN1C2CCC1CC(O)(c1ccc(OC)cc1)C2 (centres undefined) | 3%
COc1ccc(NC(=O)N2CC3(CCN(C(=O)c4ccc(OC)cc4)CC3)C2)cc1 | 55%
CN(CCNC(=O)C1CCN(S(=O)(=O)N2CCOCC2)CC1)CCc1ccccc1 | 13%
Cc1cc(-n2c(C)cc(C(=O)COC(=O)CN=C3NS(=O)(=O)c4ccccc43)c2C)no1 | -13%
CS(=O)(=O)N(CC(=O)N1CCN(c2ccccc2)CC1)c1cccc(Br)c1 | 64%

SMILES | AmpC inh no det
COc1ccc(Cl)cc1NC(=O)CN1CCC(n2nnc3cc(F)ccc32)CC1 | 67%
O=S(=O)(c1ccccc1Cl)N1CCCC(c2nc(-c3cccnc3)no2)C1 (centres undefined) | 58%
COc1ccccc1-n1c(-c2ccoc2)nc2ccccc2c1=O | 0%
Fc1cccc(F)c1CN1CCN(c2ncccn2)CC1 | 8%
CSCCC1(C(=O)O)NC(c2ccccc2O)C2C(=O)N(C(C)C)C(=O)C21 (centres undefined) | 14%
CC(NC(=O)C(CC(=O)OC(C)(C)C)NC(=O)OC(C)(C)C)C(N)=O (centres undefined) | 8%
O=C1c2ccccc2-c2n[nH]c3cccc1c23 | -11%&-18%
COc1nonc1NCn1nc(C)cc1C | 1%

Molecules from the list above that have a CF3 group, in the order listed:
SMILES | AmpC inh no det
COc1ccccc1NC(=O)CCC(=O)Nc1nnc(C(F)(F)F)s1 | -9%
Cc1cccc(NC(=O)c2cc3n(n2)C(C(F)(F)F)CC(c2ccc4c(c2)OCO4)N3)c1 (centres undefined) | 14%

(more compounds)
SMILES | AmpC inh no det
O=C(c1nc2ccccc2s1)N1CCSCC1 | -7%
Cc1ccc(S(=O)(=O)N2CCN(C(=O)COc3ccc(-c4nnco4)cc3)CC2)cc1 | 45%
O=C(NC1CCN(C(=O)Nc2cccc(F)c2)CC1)C1CCCCC1 | -17%
c1ccc2c(c1)CCCn1nnnc1-2 | -4%
O=C1CN(/N=C/c2ccc([N+](=O)[O-])o2)C(=O)N1 | -8%
COc1cccc(C(=O)Oc2cc(N)n(S(=O)(=O)c3ccc(C)cc3)n2)c1OC | -13%
Cc1cc(NC(=O)CSc2nnc(CNc3cccc(C(F)(F)F)c3)n2Cc2ccco2)no1 | 16%
Cc1cc2ccccc2n1CCNC(=O)C(C)(C)C | 3%

SMILES | AmpC inh no det
O=C(O)c1ccc(CN2C(=O)c3ccccc3S2(=O)=O)cc1 | -5%
COC(=O)Nc1sc2c(c1C(=O)N1CCOCC1)CCC(C)C2 (centres undefined) | 9%
COc1cccc(-n2c(Cc3cc(=O)[nH]c(=O)[nH]3)nnc2SCC(=O)NC2CCCC2)c1 | 19%
COc1ccc(NC(=O)CSc2nnc(-c3ccccc3Cl)n2Cc2ccco2)c(OC)c1 | 51%
O=C(NC1=NCCS1)C12CC3CC(C1)CC(C(=O)NC1=NCCS1)(C3)C2 | -9%
O=C(O)c1ccccc1NS(=O)(=O)c1cccc2cccnc12 | -5%
O=S(=O)(c1ccc2c(c1)OCCO2)N1CCC(n2nnc3cc(F)ccc32)CC1 | 17%
CCOC(=O)c1ccc2[nH]c(C)c(CCC(C)=O)c(=O)c2c1 | -3%

SMILES | AmpC inh no det
COc1ccc(-c2cc(C(=O)NC(C(=O)O)C(C)C)c(C)o2)cc1OC (centres undefined) | 10%
Cc1ccc(-c2cc(C(=O)OCC(=O)Nc3cc(C)on3)c3ccccc3n2)c(C)c1 | -4%
Cc1c(NC(=O)CN2C(=O)c3cccc4cccc2c34)c(=O)n(-c2ccccc2)n1C | 1%
O=C(NCc1cccnc1)c1cc(-c2cccs2)on1 | -6%
CN(C)c1ccc(N/C=C/C(=O)c2ccccc2)cc1 | 0%
CC(=O)Oc1cccc(N2C(=O)c3ccc(C(=O)O)cc3C2=O)c1 | -1%
Cc1cc(C)cc(Oc2ccc(N)cc2)c1 | 3%
CCOC(=O)C1CCN(S(=O)(=O)c2cc(Cl)c(C)cc2OC)CC1 | 104%

SMILES | AmpC inh no det
COC(=O)CNC(=O)C1(C)C=CCN1C(=O)c1ccccc1 (centres undefined) | -19%
CCCOC(=O)c1[nH]c2c(c1C)C(=O)CC(c1ccc(OC)c(OC)c1)C2 (centres undefined) | 17%
O=C(c1ccc(F)cc1)N(Cc1ccccc1)C1CCS(=O)(=O)C1 (centres undefined) | 15%
CCOC(=O)Cc1[nH]nc2c1C(c1ccoc1)C(C#N)=C(N)O2 (centres undefined) | -4%
